Six1-Eya2 blk: qHTS Assay for Inhibitors of the Six1/Eya2 Interaction; hit rate 0.56% among 360,000; activity change, % (no concentration beside the values); AlphaScreen GST-Six1/His-Eya2 binding, biochemical; stronger effect = lower value; control for the full effect not named in the record; AID 651725, 2012; in the data active = activity change below about -65%; inconclusive = about -30% to -65%; inactive = above about -30%; also: % is scaled to controls: 0 for no effect and ±100 for the full control effect; compound concentration not given in the record
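Six1/Eya2 binding was read as AlphaScreen signal after compounds were pinned into GST-Six1 plus His-tagged Eya2 (5X stock 250/500 nM) in pH 8.0 Tris/NaCl/TCEP buffer, beads added, then incubated 1 h, 37 C, dark.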
CtBP-E1A blk: qHTS Assay for Inhibitors of the CtBP/E1A Interaction; CtBP / adenovirus E1A interaction (AlphaScreen); AlphaScreen GST-E1A/His-CtBP binding, 1536-well; stronger effect = lower value; control for the full effect not named in the record; activity change, % (concentration not given with the values); hit rate 0.49% among 340,000; in the data active means activity change below about -65%; inconclusive means about -30% to -65%; inactive means above about -30%; also: % is scaled to controls: 0 for no effect and ±100 for the full control effect
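GST-E1A and His-tagged CtBP (125 nM each as 5X stock) were preincubated with pin-transferred compound for 2 h at 37 °C in the dark, then glutathione donor and nickel acceptor beads were added for 1 h before AlphaScreen reading.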
TRPML1 ag: qHTS for Agonists of the Human Mucolipin Transient Receptor Potential 1 (TRPML1) | Mucolipin-1 (Homo sapiens), Q9GZU1 | TRPML1-expressing cells, Ca2+ dye fluorescence, FDSS; host cell line not named in the record; reference of the full effect not given here | activation, % (test concentration not listed) | hit rate 0.12% among 410,000; in the data active = activation above about 50%; inconclusive = about 30% to 50%; inactive = below about 30%; also: 0% is about no effect; the text of the record puts the active cut at 80%
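In this qHTS format, compounds were pin-transferred onto Ca8-dye-loaded TRPML1-DL cells induced with Tet overnight, and intracellular Ca2+ fluorescence was recorded kinetically for 110 s after a 10 s baseline. A subsequent 4uM final 54-4 (EC80) addition followed by a second 110 s read served as the antagonist phase.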
TRPML1 inh: qHTS for Inhibitors of the Human Mucolipin Transient Receptor Potential 1 (TRPML1) | hit rate 0.02% among 390,000 | Mucolipin-1 (Homo sapiens), Q9GZU1 | TRPML1-inducible cells, Ca2+ dye fluorescence, FDSS; stronger effect = lower value; inhibition of EC80 agonist-evoked calcium signal | activity change, negative = inhibition, % (concentration not given with the values); in the data active means activity change below about -50%; inconclusive means about -30% to -50%; inactive means above about -30%;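 also: stimulus is agonist 54-4 at its EC80 concentration; % is scaled to controls: 0 for no effect and ±100 for the full control effect; compound concentration not given in the record; the text of the record puts the active cut at -80%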
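TRPML1-DL cells, Tet-induced overnight (~16 h, 37 °C) at 1,500 cells/well, were loaded with Ca8 no-wash dye plus quencher for 45-90 min at room temperature. Compounds were pinned during FDSS kinetic reading; agonist 54-4 at EC80 (4 uM final) then added.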
TRPV1 potentiator: HTS Assay for Compounds that Act as Potentiators of the Vanilloid Receptor 1; Transient receptor potential cation channel subfamily V member 1 (Homo sapiens), Q8NER1; potentiation, % at 8.33 µM; TRPV1-expressing cells, Fluo-8 calcium influx, capsaicin EC20 potentiation; host cell line not named in the record; control for the full effect not named in the record; hit rate 0.02% among 320,000; active means potentiation above 80%; inconclusive means 30% to 80%; inactive means below 30%; also: 0% is about no effect
Target sequence (Q8NER1 whole entry, looked up): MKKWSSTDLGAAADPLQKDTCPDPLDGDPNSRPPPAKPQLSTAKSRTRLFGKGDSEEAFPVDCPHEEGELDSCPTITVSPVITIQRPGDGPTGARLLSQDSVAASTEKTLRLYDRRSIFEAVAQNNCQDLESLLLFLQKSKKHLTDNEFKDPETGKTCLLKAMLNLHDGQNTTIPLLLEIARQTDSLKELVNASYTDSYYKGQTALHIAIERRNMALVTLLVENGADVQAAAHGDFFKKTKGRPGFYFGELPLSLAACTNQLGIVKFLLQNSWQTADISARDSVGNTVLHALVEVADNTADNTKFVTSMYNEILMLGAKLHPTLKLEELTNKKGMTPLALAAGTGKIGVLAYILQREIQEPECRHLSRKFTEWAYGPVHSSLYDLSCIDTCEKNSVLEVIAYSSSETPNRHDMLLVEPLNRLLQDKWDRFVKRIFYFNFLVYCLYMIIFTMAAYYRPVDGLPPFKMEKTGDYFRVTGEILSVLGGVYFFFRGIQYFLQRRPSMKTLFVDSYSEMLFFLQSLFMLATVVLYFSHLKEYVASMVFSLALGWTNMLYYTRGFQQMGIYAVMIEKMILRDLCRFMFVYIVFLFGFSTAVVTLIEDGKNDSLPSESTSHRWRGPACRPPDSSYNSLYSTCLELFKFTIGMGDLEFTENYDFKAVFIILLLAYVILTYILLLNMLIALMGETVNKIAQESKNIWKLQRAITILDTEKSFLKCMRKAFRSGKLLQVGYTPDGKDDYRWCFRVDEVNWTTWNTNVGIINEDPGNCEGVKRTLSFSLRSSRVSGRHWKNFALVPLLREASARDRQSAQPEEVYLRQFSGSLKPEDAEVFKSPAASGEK
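Cells expressing TRPV1 were dye-loaded with Fluo-8 and read kinetically: 10 s baseline, 3 min after compound (agonist portion), then 2 min after EC20 capsaicin (allosteric enhancer portion). Calcium-bound dye fluorescence at 480/520 nm.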
D2 potentiator: Beta-Arrestin HTS for Positive Allosteric Modulators of the Human D2 Dopamine Receptor: Potentiators; D(2) dopamine receptor (Homo sapiens), P14416; DiscoveRx D2 beta-arrestin cells, luminescence, 90 min; 100% = 57 uM dopamine signal; potentiation, % (no concentration beside the values); hit rate 0.23% among 360,000; AID 624464, 2012; active = potentiation of 50% or more; inconclusive = 30% to 50%; inactive = 30% or less;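 also: compound concentration not given in the record; tested on top of an EC20 dose of dopamine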
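PathHunter D2 cells, attached overnight at 37 deg C, received compound in DMSO plus dopamine at EC20 (50 nM final) for 90 min at 37 deg C. Beta-arrestin recruitment was read as luminescence after 1 h with detection reagent at ambient temperature.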
An asterisk follows results filed as active; . = not tested or not shown; & = joins results of further samples. Hits appear at their usual frequency; about 0.95% have a hit in one of these screens.

[1] COC(=O)[C@@]1(Cc2ccc(F)cc2)[C@H]2c3cc(C(=O)N(C)C)n(Cc4ccccn4)c3C[C@H]2CN1C(=O)c1ccccc1
[2] C=C(C)c1cccc(C(C)(C)NC(=O)N2CCN(C(=O)OCC)CC2)c1
[3] CN1C2CCC1CC(NS(=O)(=O)c1cc(Cl)c(Cl)cc1Cl)C2 (configuration not stated)
[4] O=C(CC1SC(N2CCOCC2)=NC1=O)Nc1cc([N+](=O)[O-])ccc1Cl (configuration not stated)
[5] CCOc1ccc(OCCOCCn2ccnc2)cc1
[6] CCCCC(=O)NC(=S)Nc1cccc(NC(=O)CC)c1
[7] COc1ccccc1OCCCCNC(C)(C)C
[8] Cc1ccc(/C=C2/C(=O)ON=C2c2ccccc2)o1

assay / compound	1	2	3	4	5	6	7	8
Six1-Eya2 blk	-7	17	5	1	4	-7	5	-15
CtBP-E1A blk	0	21	9	-2	3	-9	-2	.
TRPML1 ag	0.3	-0.6	0.8	0.5	0.8	1.1	1.1	0.4
TRPML1 inh	6	-12	5	26	-12	-1	-6	-16
TRPV1 potentiator	-6	.	6	7	9	.	-18	0
D2 potentiator	-10	-3	16	-14	-20	-24	-28	-20

[9] CC1CCN(CCc2nc3cc(NC(=O)Nc4ccccc4)ccc3n2C)CC1
[10] COc1ccccc1-c1ccc(SCC(=O)NC2CCCC2)nn1
[11] COc1ccc(NC(=O)N(C)C[C@H]2Oc3ccc(NC(=O)Nc4ccc(C(F)(F)F)cc4)cc3C(=O)N([C@H](C)CO)C[C@@H]2C)cc1
[12] CCc1nc2c(OCC(=O)C(C)(C)C)cccn2c1N(C=O)Cc1ccccc1
[13] CC(=O)Nc1cccc(-c2nc3ccc(NC(C)=O)cc3s2)c1
[14] CCOc1ccccc1Nc1nc2ccccc2n2cnnc12
[15] CC(C)C(NC(=O)c1ccc(F)cc1)C(=O)N1CCN(C(=O)c2ccco2)CC1 (configuration not stated)
[16] CCCN(CCC)S(=O)(=O)c1ccc(Cl)c(OC)c1

assay / compound	9	10	11	12	13	14	15	16
Six1-Eya2 blk	4	2	-6	3	5	2	0	8
CtBP-E1A blk	-3	-1	-1	4	.	4	.	5
TRPML1 ag	-1.0	2.0	-0.2	-0.1	0.4	-0.6	-0.7	-0.4
TRPML1 inh	-13	10	32	.	4	5	6	-10
TRPV1 potentiator	5	0	.	.	2	25	-2	0
D2 potentiator	-12	-3	.	-5	3	-3	-4	-10

[17] O=C(COc1ccc2cc(Br)ccc2c1)N1CCOCC1
[18] CC(C)(C)OC(=O)C[C@H]1C/C=C\C[C@H](CC(=O)NCCO)C(=O)N2CCC[C@@H]2COC1=O
[19] C=CCSc1nnc(-c2ccccc2N=Cc2c(C)[nH]n(-c3ccccc3)c2=O)c(=O)[nH]1
[20] COc1cccc2sc(N)nc12
[21] CC1=CSC2=NC(=O)/C(=C\c3cccn3-c3ccc([N+](=O)[O-])cc3)C(=N)N12
[22] CCCCOc1ccc(C(=O)NCC(=O)NCc2ccccn2)cc1
[23] Oc1ccc(O)c(Cc2nc3ccccc3s2)c1
[24] COc1ccc(CCNC(=S)Nc2ccccc2)cc1

assay / compound	17	18	19	20	21	22	23	24
Six1-Eya2 blk	1	-6	-23	6	131	14	-4	-4
CtBP-E1A blk	0	-1	-30	-24	4	37	-19	8
TRPML1 ag	0.2	-0.3	0.9	0.3	0.4	3.4	2.8	-0.3
TRPML1 inh	6	-4	-4	-5	-21	-14	3	-4
TRPV1 potentiator	.	.	-1	1	15	8	-4	.
D2 potentiator	-1	0	7	-5	18	-6	-3	-17

[25] O=C(Nc1cc2c(oc1=O)CCCC2=O)c1ccc(Cl)cc1
[26] CCOc1ccc(Oc2c(/C=N/NC(=O)COc3ccccc3OC)c(C)nn2-c2ccccc2)cc1
[27] CCC1(CC)NC(=O)N(CC(=O)OCn2nnc3ccccc3c2=O)C1=O
[28] CCc1ccc(Nc2cc(=O)n(C3CCCCC3)c(=O)[nH]2)cc1
[29] CCc1nnc(NC(=O)c2ccc(S(=O)(=O)N(CC)Cc3ccccc3)cc2)o1
[30] Cc1ccc(S(=O)(=O)N2[C@@H](c3ccc(Br)cc3)C(C(=O)O)=CC[C@H]2c2ccc(Cl)cc2)cc1
[31] O=C(Nc1cc(Cl)ccc1O)C1CC(c2c(F)cccc2Cl)=NO1 (configuration not stated)
[32] CCCCn1c(-c2ccco2)n[nH]c1=S

assay / compound	25	26	27	28	29	30	31	32
Six1-Eya2 blk	-28	-13	7	0	-20	-2	-15	11
CtBP-E1A blk	-5	-2	-4	-4	-23	5	-2	11
TRPML1 ag	-0.5	2.9	-0.1	24	-0.4	-0.4	2.9	0.3
TRPML1 inh	-2	36	-10	-7	9	14	10	-4
TRPV1 potentiator	5	-1	-18	.	3	.	7	6
D2 potentiator	-4	-5	-6	1	-2	.	2	-24

[33] COc1ccc(-c2cc(C(=O)c3c(N)n(C)c(=O)n(C)c3=O)c3ccccc3n2)cc1OC
[34] Cc1cccc(NS(=O)(=O)c2cccc(C(=O)N3CCC3)c2)c1
[35] COc1ccc(S(=O)(=O)N2CCOC2CNC(=O)C(=O)NCc2ccncc2)cc1 (configuration not stated)
[36] C[C@H]1CN([C@@H](C)CO)C(=O)CCCn2cc(nn2)CO[C@@H]1CN(C)C(=O)C1CCCCC1
[37] COC(=O)c1cnn2c1C(=O)N(Cc1cccs1)CC2
[38] COc1cc(C2(C)SCCCS2)cc(OC)c1OC
[39] COc1nc(Nc2cccc(C)c2)nc(N2CCCCC2)n1
[40] CCOCCCNC(=O)CN1C(=O)c2ccccc2Sc2ncccc21

assay / compound	33	34	35	36	37	38	39	40
Six1-Eya2 blk	-13	-1	8	-1	1	-24	1	-7
CtBP-E1A blk	0	.	5	0	4	-10	-19	-4
TRPML1 ag	1.0	-1.1	-0.1	-0.2	-0.8	-0.9	0.9	1.1
TRPML1 inh	-19	-5	17	26	2	.	20	0
TRPV1 potentiator	0	15	-2	.	23	.	-12	5
D2 potentiator	4	-9	9	-2	-2	.	-28	-5

Retrieved one by one from the list above, 2 records:
[9] CC1CCN(CCc2nc3cc(NC(=O)Nc4ccccc4)ccc3n2C)CC1
[7] COc1ccccc1OCCCCNC(C)(C)C

assay / compound	9	7
Six1-Eya2 blk	4	5
CtBP-E1A blk	-3	-2
TRPML1 ag	-1.0	1.1
TRPML1 inh	-13	-6
TRPV1 potentiator	5	-18
D2 potentiator	-12	-28

(continued)
[41] Cc1cccc(S(=O)(=O)c2c(C)cc(C)[nH]c2=O)c1
[42] O=C(c1ccco1)N1CCN(S(=O)(=O)c2ccccc2)CC1
[43] O=S(=O)(NCCN1CCOCC1)c1ccc(Oc2ccccc2Cl)cc1
[44] CCCCn1c(N)c(N(C)C(=O)c2c(C)nn(-c3ccccc3)c2C)c(=O)[nH]c1=O
[45] CN(C)CCN(C(=O)C1=COCCO1)c1nc2ccc(Cl)cc2s1
[46] C=CCN(C(C(=O)OC)C(C)C)S(=O)(=O)CCNCc1ccccc1 (configuration not stated)
[47] CN(CC(=O)Nc1ccccc1Cl)C(=O)CSc1nncn1C
[48] CC1CC(C)CN(C(=O)c2cc3c(=O)n4ccccc4nc3s2)C1 (configuration not stated)

assay / compound	41	42	43	44	45	46	47	48
Six1-Eya2 blk	9	0	5	5	-5	5	7	11
CtBP-E1A blk	-7	0	-4	.	0	2	4	1
TRPML1 ag	1.1	0.2	-0.2	0.0	1.4	-0.4&-0.4	-0.5	-0.3
TRPML1 inh	-6	8	0	5	-9	23	3	4
TRPV1 potentiator	-24	23	9	.	-13	.	-2	7
D2 potentiator	-5	-2	-7	-2	-40	-38	-4	-3

Ordered by value in TRPML1 inh (descending): some entries from above.
nr	compound	TRPML1 inh
4	O=C(CC1SC(N2CCOCC2)=NC1=O)Nc1cc([N+](=O)[O-])ccc1Cl (configuration not stated)	26
15	CC(C)C(NC(=O)c1ccc(F)cc1)C(=O)N1CCN(C(=O)c2ccco2)CC1 (configuration not stated)	6
25	O=C(Nc1cc2c(oc1=O)CCCC2=O)c1ccc(Cl)cc1	-2
18	CC(C)(C)OC(=O)C[C@H]1C/C=C\C[C@H](CC(=O)NCCO)C(=O)N2CCC[C@@H]2COC1=O	-4
20	COc1cccc2sc(N)nc12	-5
45	CN(C)CCN(C(=O)C1=COCCO1)c1nc2ccc(Cl)cc2s1	-9

The listing continues:
[49] N#CCCN1CCn2c1nc1ccccc12
[50] CCOC(=O)N1CCN(C(=O)C2CCC(=O)N(CCc3ccccc3)C2)CC1 (configuration not stated)
[51] CCOC(=O)c1c(C)[nH]c(C)c1S(=O)(=O)N(C)CC(=O)Nc1cc(C)ccc1OC
[52] COc1ccc(S(=O)(=O)N2CCN(C(=O)[C@@H]3CCCN3C(=O)c3cccs3)CC2)cc1
[53] O=S(=O)(c1ccc(F)cc1)N1CCN(S(=O)(=O)c2cccs2)CC1
[54] COc1cc2c(cc1OC)C(C)N(C(=O)c1cc(C)on1)CC2 (configuration not stated)
[55] C[C@H](NC(=O)c1cc2cc(Cl)ccc2n1C)C(=O)N[C@@H](C(=O)O)c1ccccc1
[56] CCOCCCNC(=O)c1ccc(NC(C)=O)cc1

assay / compound	49	50	51	52	53	54	55	56
Six1-Eya2 blk	5	11	-2	8	6	-4	-5	-4
CtBP-E1A blk	0	1	.	-11	4	7	8	-1
TRPML1 ag	1.1	0.0	0.5	-0.2	0.0	0.1	0.9	-0.1
TRPML1 inh	16	14	12	-12	17	7	22	3
TRPV1 potentiator	-14	.	-8	8	4	-7	6	2
D2 potentiator	-10	-8	-8	-2	6	-2	-1	4

[57] CCN1CCN(Cc2ccc(NC(=O)c3ccc(C)c(NC(=O)c4ccno4)c3)cc2C(F)(F)F)CC1
[58] O=C(CCc1ccccc1)NCc1ccccc1
[59] CCn1c(SCC(=O)N/N=C/C=C/c2ccco2)nnc1-c1ccc(OC)cc1
[60] O=C(C1CCN(c2nc3nonc3nc2N2CCCCC2)CC1)N1CCOCC1
[61] C/C(=N\NC(=O)c1cc(C)nc2ccccc12)c1ccccn1
[62] O=C(NNc1cc(Cl)ccc1Cl)C1CCC1
[63] CCc1cc2c(C)cc(C)cc2nc1SCC(=O)Nc1cc(C)on1
[64] COc1ccc(NC(=O)CSc2ncnc3c2cnn3CCc2ccccc2)cc1

assay / compound	57	58	59	60	61	62	63	64
Six1-Eya2 blk	6&-11	8	-16	4	-89*	-10	5	3
CtBP-E1A blk	7&-3	.	-13	-2	-92*	-2	7	2
TRPML1 ag	0.6&-0.6	0.5	1.7	-0.1	-0.1	0.0	0.6	-0.2
TRPML1 inh	31&-14	-8	-7	20	9	7	-9	-28
TRPV1 potentiator	-16	6	-2	-15	13	20	-1	28
D2 potentiator	-13&-19	-11	-14	-2	-8	-11	-1	-6

Assay outcomes deposited in PubChem by National Center for Advancing Translational Sciences (NCATS).
